Yeast UUG start: modulators of yeast start codon fidelity, primary screen, whole organism, S. cerevisiae, single point, plate reader; activity score, % at 18.7 µM; S. cerevisiae UUG-firefly luciferase reporter, luminescence/redox ratio; 0.13% of 350,000 active;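 active = replicate mean at a twofold rise or more, about +100% in these data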;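 note: firefly luciferase made from a UUG start codon reports start codon fidelity; reporter light over untreated wells divided by growth signal over untreated wells; some hits fall short of that in this replicate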
Env fusion inh: inhibitors of HIV-1 Env-driven cell-cell fusion, primary screen, HeLa-JRFL effector, CEM21 target cells, luciferase | inhibition, % at 12.3 µM | 1.1% of 360,000 active;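 active = mean replicate inhibition score of at least 50 and every replicate individually at or above 50; inconclusive = only one of the two criteria met; inactive = mean below 50 and not all replicates reaching 50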;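 note: 0% = plate neutral controls and 100% = maraviroc near 300 nM; one replicate is shown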
The depositor's hits bear a star; u = inconclusive; [ ] = remark or other dose. The list is partial; count on the stated rates, not on these rows.

The first six entries, to show the layout:
Under each structure: Yeast UUG start	Env fusion inh
CC(C)CC#Cc1ccc2c(c1)O[C@H](CN(C)Cc1cccc(F)c1)[C@@H](C)CN([C@H](C)CO)S2(=O)=O
→ 3	1[16.7 µM]
CCCN(C)C[C@@H]1OCCCC[C@H](C)Oc2ccc(NC(=O)NC3CCCCC3)cc2C(=O)N([C@@H](C)CO)C[C@@H]1C
→ 4	2[16.7 µM]
COc1ccc(NC(=O)N(C)C[C@@H]2Oc3ccc(NC(=O)c4ccncc4)cc3C(=O)N([C@@H](C)CO)C[C@H]2C)cc1
→ -4	-1[16.7 µM]
C[C@@H]1CN([C@@H](C)CO)S(=O)(=O)c2ccc(-c3cccnc3)cc2O[C@H]1CN(C)C(=O)NC1CCCC1
→ -12	-12[16.7 µM]
C[C@H]1CCCCO[C@H](CN(C)CC2CCCCC2)[C@@H](C)CN([C@@H](C)CO)C(=O)c2cc(NC(=O)Nc3ccc(F)cc3)ccc2O1
→ 19	u
C/C=C/c1ccc2c(c1)O[C@@H](CN(C)C(=O)COC)[C@@H](C)CN([C@@H](C)CO)S2(=O)=O
→ -3	7[16.7 µM]

Main list, from the first entry:
Under each structure: Yeast UUG start	Env fusion inh
CC(C)CC#Cc1ccc2c(c1)O[C@H](CN(C)Cc1cccc(F)c1)[C@@H](C)CN([C@H](C)CO)S2(=O)=O
→ 3	1[16.7 µM]
CCCN(C)C[C@@H]1OCCCC[C@H](C)Oc2ccc(NC(=O)NC3CCCCC3)cc2C(=O)N([C@@H](C)CO)C[C@@H]1C
→ 4	2[16.7 µM]
COc1ccc(NC(=O)N(C)C[C@@H]2Oc3ccc(NC(=O)c4ccncc4)cc3C(=O)N([C@@H](C)CO)C[C@H]2C)cc1
→ -4	-1[16.7 µM]
C[C@@H]1CN([C@@H](C)CO)S(=O)(=O)c2ccc(-c3cccnc3)cc2O[C@H]1CN(C)C(=O)NC1CCCC1
→ -12	-12[16.7 µM]
C[C@H]1CCCCO[C@H](CN(C)CC2CCCCC2)[C@@H](C)CN([C@@H](C)CO)C(=O)c2cc(NC(=O)Nc3ccc(F)cc3)ccc2O1
→ 19	u
C/C=C/c1ccc2c(c1)O[C@@H](CN(C)C(=O)COC)[C@@H](C)CN([C@@H](C)CO)S2(=O)=O
→ -3	7[16.7 µM]
O=C(C[C@@H]1C=C[C@H](NC(=O)c2cccc(F)c2)[C@H](CO)O1)NCCN1CCCC1
→ 13	8[16.7 µM]
C[C@@H]1CN([C@@H](C)CO)C(=O)CCCn2cc(nn2)CO[C@H]1CN(C)C(=O)CCC(F)(F)F
→ 1	-14[16.7 µM]
Cc1ccc(S(=O)(=O)N(C)C[C@@H]2Oc3ccc(NS(C)(=O)=O)cc3CC(=O)N([C@@H](C)CO)C[C@@H]2C)cc1
→ 3	-12[16.7 µM]
C[C@H]1CCCCO[C@H](CN(C)C(=O)Cc2ccccc2)[C@@H](C)CN([C@@H](C)CO)C(=O)c2cc(NC(=O)c3ccncc3)ccc2O1
→ 18	-11[16.7 µM]
C[C@@H]1CN([C@H](C)CO)C(=O)c2cc(-c3ccc(C(=O)N(C)C)cc3)cnc2O[C@@H]1CN(C)C(=O)CN(C)C
→ 1	-10[16.7 µM]
C=CCNC(=O)[C@H]1[C@@H]2C(=O)O[C@@H](c3ccccc3)[C@@H](c3ccccc3)N2[C@@H](c2ccc(O)cc2)[C@]12C(=O)Nc1ccc(C#CC3=CCCCC3)cc12
→ -16	13[16.7 µM]
C[C@H](CO)N1C[C@H](C)[C@H](CN(C)S(=O)(=O)c2cn(C)cn2)OCCCC[C@H](C)Oc2ccc(NC(=O)Nc3ccc4c(c3)OCO4)cc2C1=O
→ 11	26[16.7 µM]
C[C@@H]1CCCCO[C@@H](CN(C)Cc2ccncc2)[C@H](C)CN([C@H](C)CO)C(=O)c2cc(NC(=O)Nc3ccc(F)cc3)ccc2O1
→ 10	-34[16.7 µM]
CC(C)C(=O)Nc1ccc2c(c1)C(=O)N(C)[C@H]1CC[C@H](CC(=O)Nc3cccc(Cl)c3)O[C@@H]1CO2
→ 18	11[16.7 µM]
COc1ccc(S(=O)(=O)N[C@@H]2C=C[C@@H](CC(=O)NCCc3ccccc3)O[C@@H]2CO)cc1
→ 34	2[16.7 µM]
CNC[C@@H]1Oc2ccc(NC(=O)Nc3ccc(OC)cc3)cc2C(=O)N([C@H](C)CO)C[C@@H]1C
→ 1	4[16.7 µM]
C[C@@H]1CN([C@@H](C)CO)C(=O)c2cc(-c3cccc(F)c3)cnc2O[C@H]1CN(C)Cc1cccc(F)c1
→ -6	23[16.7 µM]
CCC(=O)Nc1ccc2c(c1)C(=O)N(C)C[C@@H](OC)[C@H](C)CN(C(=O)c1ccncc1)[C@H](C)CO2
→ -9	-20[16.7 µM]
COCC#Cc1ccc2c(c1)O[C@H](CN(C)Cc1ccc(F)cc1)[C@@H](C)CN([C@@H](C)CO)S2(=O)=O
→ 6	-6[16.7 µM]
C[C@@H]1CN([C@@H](C)CO)C(=O)c2cc(-c3ccc(C#N)cc3)cnc2O[C@@H]1CN(C)CC1CC1
→ 14	7[16.7 µM]
Cc1ccc(S(=O)(=O)N(C)C[C@@H]2OCCCC[C@@H](C)Oc3ccc(NC(=O)Cc4ccccc4)cc3C(=O)N([C@H](C)CO)C[C@@H]2C)cc1
→ -10	-4[16.7 µM]
C[C@H]1CN([C@@H](C)CO)C(=O)Cc2cc(NC(=O)C3CCCCC3)ccc2O[C@@H]1CN(C)Cc1ccc(Cl)c(Cl)c1
→ 2	-14[16.7 µM]
COc1ccc(CN(C)C[C@@H]2OCCCC[C@@H](C)Oc3ccc(NS(=O)(=O)c4ccc(OC)cc4)cc3C(=O)N([C@H](C)CO)C[C@@H]2C)cc1
→ 7	-6[16.7 µM]
COc1cccc(NC(=O)N(C)C[C@H]2Oc3cc(-c4cccc(C(=O)N(C)C)c4)ccc3S(=O)(=O)N([C@H](C)CO)C[C@@H]2C)c1
→ 3	-82[16.7 µM]
CN(C)C(=O)C[C@H]1C=C[C@H](NC(=O)NC2CCCC2)[C@@H](CO)O1
→ 0	-15[16.7 µM]
Cc1noc(C)c1NC(=O)N(C)C[C@@H]1Oc2ccc(NC(=O)C3CC3)cc2CC(=O)N([C@@H](C)CO)C[C@H]1C
→ -2	-29[16.7 µM]
O=C(NCC[C@@H]1CC[C@H](NC(=O)Nc2cc(F)ccc2F)[C@H](CO)O1)Nc1ccc(F)cc1
→ 6	10[16.7 µM]
CCCN(C)C[C@H]1Oc2ncc(C#CC3(O)CCCC3)cc2C(=O)N([C@@H](C)CO)C[C@H]1C
→ -12	10[16.7 µM]
Cc1noc(C)c1NC(=O)N(C)C[C@@H]1Oc2ncc(C#CC(C)C)cc2C(=O)N([C@H](C)CO)C[C@@H]1C
→ 12	-8[16.7 µM]
CCC(=O)N(C)C[C@H]1Oc2ncc(C#CC(C)(C)O)cc2C(=O)N([C@@H](C)CO)C[C@@H]1C
→ -6	6[16.7 µM]
Cc1ccc(S(=O)(=O)Nc2ccc3c(c2)C(=O)N([C@@H](C)CO)C[C@@H](C)[C@H](CN(C)C(=O)Nc2cccc4ccccc24)OCCCC[C@@H](C)O3)cc1
→ 5	-16[16.7 µM]
C[C@@H]1CN([C@@H](C)CO)C(=O)c2cc(NC(=O)CCC(F)(F)F)ccc2O[C@@H](C)CCCCO[C@H]1CN(C)C(=O)Nc1cccc2ccccc12
→ -2	15[16.7 µM]
CN1C(=O)c2cc(NC(=O)c3ccccc3)ccc2OC[C@H]2O[C@@H](CC(=O)O)CC[C@H]21
→ -4	13[16.7 µM]
COc1cccc(CNC(=O)C[C@@H]2C=C[C@@H](NC(C)=O)[C@@H](CO)O2)c1
→ -6	4[16.7 µM]
C[C@@H]1CN([C@@H](C)CO)C(=O)c2cc(N(C)C)ccc2O[C@@H](C)CCCCO[C@@H]1CN(C)C(=O)c1ccccc1
→ -3	4[16.7 µM]
COc1cccc(CNC(=O)C[C@H]2C=C[C@@H](NC(=O)C3CC3)[C@@H](CO)O2)c1
→ -3	3[16.7 µM]
CC(C)NC(=O)N[C@H]1CC[C@H](CC(=O)O)O[C@H]1CO
→ -9	8[16.7 µM]
C[C@@H]1CN([C@H](C)CO)C(=O)c2cc(NC(=O)C3CCCCC3)ccc2O[C@@H](C)CCCCO[C@H]1CN(C)S(C)(=O)=O
→ 13	-8[16.7 µM]
C[C@@H]1CCCCO[C@H](CN(C)C(=O)Nc2ccc(C(F)(F)F)cc2)[C@@H](C)CN([C@@H](C)CO)C(=O)c2cc(NS(=O)(=O)c3cn(C)cn3)ccc2O1
→ -4	-13[16.7 µM]
Cc1noc(C)c1NC(=O)Nc1ccc2c(c1)C(=O)N([C@H](C)CO)C[C@@H](C)[C@@H](CN(C)C(=O)Nc1ccc3c(c1)OCO3)O2
→ -45	16[16.7 µM]
C[C@@H]1CN([C@@H](C)CO)C(=O)Cc2cc(NC(=O)Cc3cn(C)c4ccccc34)ccc2O[C@@H]1CN(C)CC1CC1
→ 7	-6[16.7 µM]
COc1cccc(S(=O)(=O)N2C[C@H](O)COC[C@@H]3O[C@@H](CC(=O)NCCCN4CCOCC4)CC[C@H]32)c1
→ -4	8[16.7 µM]
CCC(=O)N(C)C[C@H]1Oc2cc(-c3cccc(C#N)c3)ccc2S(=O)(=O)N([C@@H](C)CO)C[C@H]1C
→ 12	-6[16.7 µM]
C[C@@H]1CN([C@@H](C)CO)S(=O)(=O)c2ccc(C#CCC3CCCC3)cc2O[C@@H]1CN(C)C(=O)c1cnccn1
→ 22	3[16.7 µM]
C[C@H]1CN([C@@H](C)CO)S(=O)(=O)c2ccc(C#CC3CC3)cc2O[C@H]1CN(C)CC1CCOCC1
→ 0	-12[16.7 µM]
C[C@H](CO)N1C[C@H](C)[C@H](CN(C)Cc2ccc(Oc3ccccc3)cc2)Oc2ccc(NC(=O)CCN3CCOCC3)cc2CC1=O
→ 1	-1[16.7 µM]
COc1ccc(S(=O)(=O)N(C)C[C@H]2OCCCC[C@H](C)Oc3ccc(NS(=O)(=O)c4cccs4)cc3C(=O)N([C@@H](C)CO)C[C@@H]2C)cc1
→ 24	1[16.7 µM]
C/C=C/c1ccc2c(c1)O[C@H](CN(C)S(=O)(=O)c1ccccc1OC)[C@@H](C)CN([C@H](C)CO)S2(=O)=O
→ 56	5[16.7 µM]
C[C@@H]1CN([C@@H](C)CO)C(=O)Cc2cc(NC(=O)Cc3ccccc3)ccc2O[C@@H]1CN(C)Cc1ccc(-c2ccccc2)cc1
→ 3	-137[16.7 µM]
Cc1noc(C)c1S(=O)(=O)Nc1ccc2c(c1)C(=O)N([C@H](C)CO)C[C@H](C)[C@H](CN(C)C(=O)NC(C)C)OCCCC[C@H](C)O2
→ -13	-20[16.7 µM]
CO[C@@H]1CN(C)C(=O)c2ccc(NC(=O)Cc3ccccc3)cc2OC[C@H](C)N(C)C[C@H]1C
→ 35	13[16.7 µM]
C[C@H](CO)N1C[C@H](C)[C@@H](CN(C)Cc2ccc(F)cc2)Oc2cc(C#Cc3ccccn3)ccc2S1(=O)=O
→ 12	-17[16.7 µM]
COCC(=O)N(C)C[C@@H]1Oc2cc(C#C[C@@H](C)O)ccc2S(=O)(=O)N([C@@H](C)CO)C[C@H]1C
→ 23	9[16.7 µM]
O=C(Nc1ccc(C(F)(F)F)cc1)N[C@H]1CC[C@H](CCNC(=O)c2ccccc2F)O[C@@H]1CO
→ -8	10[16.7 µM]
CO[C@H]1CN(C)C(=O)c2ccc(NS(C)(=O)=O)cc2OC[C@@H](C)N(C(=O)C2CCOCC2)C[C@H]1C
→ 7	-13[16.7 µM]
COc1cc(/C=C(\C#N)C(=O)Nc2nnc(C(F)(F)F)s2)ccc1OCc1ccc(C(F)(F)F)cc1C(F)(F)F
→ -11	4[16.7 µM]
C[C@@H]1CCCCO[C@@H](CN(C)CC2CCCCC2)[C@@H](C)CN([C@@H](C)CO)C(=O)c2cc(NS(=O)(=O)c3ccc(Cl)cc3)ccc2O1
→ 36	-9[16.7 µM]
C[C@H]1CN([C@@H](C)CO)S(=O)(=O)c2ccc(C#CCN(C)C)cc2O[C@@H]1CN(C)Cc1cccnc1
→ -11	-45[16.7 µM]
C[C@@H]1CN([C@H](C)CO)C(=O)c2cc(/C=C/c3ccccc3)cnc2O[C@H]1CN(C)C(=O)c1ccncc1
→ 24	13[16.7 µM]

Other results.
Under each structure: Yeast UUG start	Env fusion inh
CN(C)C(=O)c1ccc(-c2ccc([C@H]3[C@@H](C#N)N(C(=O)Cc4ccccn4)[C@@H]3CO)cc2)cc1
→ 0	-8[16.7 µM]
Cc1ccc(S(=O)(=O)Nc2ccc3c(c2)CC(=O)N([C@H](C)CO)C[C@H](C)[C@H](CN(C)S(=O)(=O)c2ccc(C)cc2)O3)cc1
→ -6	90*[16.7 µM]
O=C1O[C@@H](c2ccccc2)[C@@H](c2ccccc2)N2[C@@H](c3ccc(OCCO)cc3)[C@]3(C(=O)Nc4ccc(C#CC5=CCCCC5)cc43)[C@@H](C(=O)N3CCN(c4ncccn4)CC3)[C@H]12
→ -10	8[16.7 µM]
C[C@H]1CCCCO[C@@H](CN(C)Cc2ccccc2)[C@@H](C)CN([C@@H](C)CO)C(=O)c2cc(NS(=O)(=O)c3cn(C)cn3)ccc2O1
→ 4	19[16.7 µM]
C[C@@H]1CN([C@@H](C)CO)C(=O)c2cc(N(C)C)ccc2O[C@H]1CN(C)Cc1ccc(Cl)c(Cl)c1
→ 13	8[16.7 µM]
CCCNC(=O)N(C)C[C@@H]1Oc2cc(C#CCN(C)C)ccc2S(=O)(=O)N([C@@H](C)CO)C[C@H]1C
→ 1	-6[16.7 µM]
O=C(Nc1ccc2c(c1)[C@@H]1C[C@H](CC(=O)N3CCOCC3)O[C@H](CO)[C@@H]1O2)C1CCOCC1
→ -6	16[16.7 µM]
